Env fusion inh – blocks HIV Env-driven cell-cell fusion | HeLa-JRFL Env/CEM21 cell fusion, luciferase | inhibition, % at 12.3 µM | 360,000 compounds, 1.1% hits;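 active = mean replicate inhibition score of at least 50 and every replicate individually at or above 50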;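 also: 0% = plate neutral controls and 100% = maraviroc near 300 nM; one replicate is shown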
Yeast UUG start – alters start codon recognition fidelity in yeast; activity score, % at 18.7 µM; 350,000 compounds, 0.13% hits; AID 602363; S. cerevisiae UUG-firefly luciferase reporter, luminescence/redox ratio;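 active = replicate mean at a twofold rise or more, about +100% in these data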;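 also: firefly luciferase made from a UUG start codon reports start codon fidelity; reporter light over untreated wells divided by growth signal over untreated wells; some hits fall short of that in this replicate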
Numbers without * were called inactive; [ ] = dose if it differs, or a comment. Not all compounds are listed. The share of hits here may be higher or lower than overall.

smiles | Env fusion inh | Yeast UUG start
C[C@@H]1CN([C@H](C)CO)S(=O)(=O)c2ccc(C3=CCCC3)cc2O[C@@H]1CN(C)Cc1cccnc1 | -32[16.7 µM] | 6
O=C(N[C@@H]1CC[C@H](CC(=O)N2CCOCC2)O[C@@H]1CO)c1cccc(F)c1 | -12[16.7 µM] | -10
COCCNC(=O)C[C@@H]1C[C@@H]2c3cc(NS(C)(=O)=O)ccc3O[C@@H]2[C@@H](CO)O1 | -13[16.7 µM] | -9
C[C@@H]1CN([C@@H](C)CO)C(=O)c2cc(NC(=O)Nc3ccc(C(F)(F)F)cc3)ccc2O[C@H]1CN(C)Cc1ccc2c(c1)OCO2 | -15[16.7 µM] | -8
O=C(C[C@H]1C[C@@H]2c3cc(NC(=O)C4CCOCC4)ccc3O[C@@H]2[C@@H](CO)O1)NCc1cccc(F)c1 | -1[16.7 µM] | 25
COc1ccc(-c2cnc3c(c2)C(=O)N([C@H](C)CO)C[C@H](C)[C@@H](CN(C)C(=O)C2CCOCC2)O3)cc1 | 15[16.7 µM] | 9
C/C=C/c1cnc2c(c1)C(=O)N([C@@H](C)CO)C[C@H](C)[C@H](CN(C)C(=O)c1ccc3c(c1)OCO3)O2 | 4[16.7 µM] | -6
COc1ccccc1NC(=O)N[C@@H]1CC[C@H](CCNC(=O)Cc2ccccn2)O[C@H]1CO | -192[16.7 µM] | -5
C[C@H](CO)N1C[C@H](C)[C@H](CN(C)S(C)(=O)=O)Oc2cc(-c3ccccc3F)ccc2S1(=O)=O | 33[16.7 µM] | 12
C[C@@H]1CCCCO[C@@H](CN(C)Cc2ccccc2)[C@@H](C)CN([C@@H](C)CO)C(=O)c2cc(NC(=O)Nc3cccc4ccccc34)ccc2O1 | -47[16.7 µM] | 15
CN1C(=O)c2cc(NS(=O)(=O)c3ccccc3Cl)ccc2OC[C@H]2O[C@@H](CC(=O)O)CC[C@H]21 | -21[16.7 µM] | -6
COCC#Cc1ccc2c(c1)O[C@H](CN(C)C(=O)Nc1ccccc1F)[C@H](C)CN([C@@H](C)CO)S2(=O)=O | -30[16.7 µM] | 31
C[C@H]1CN([C@@H](C)CO)C(=O)c2cc(C#CC3(O)CCCC3)cnc2O[C@@H]1CN(C)C(=O)C1CCCCC1 | -11[16.7 µM] | 20
COc1cccc(NC(=O)N[C@@H]2CC[C@H](CC(=O)Nc3ccc(-c4ccccc4)cc3)O[C@@H]2CO)c1 | 2[16.7 µM] | -12
COc1ccc(-c2ccc([C@H]3[C@@H](CO)N(C(=O)C4CCOCC4)[C@H]3C#N)cc2)cc1 | 6[16.7 µM] | -4

4 of the compounds above, as labelled records.
Structure: C[C@H](CO)N1C[C@H](C)[C@H](CN(C)S(C)(=O)=O)Oc2cc(-c3ccccc3F)ccc2S1(=O)=O
  Env fusion inh: 33[16.7 µM] | Yeast UUG start: 12

Structure: C[C@@H]1CCCCO[C@@H](CN(C)Cc2ccccc2)[C@@H](C)CN([C@@H](C)CO)C(=O)c2cc(NC(=O)Nc3cccc4ccccc34)ccc2O1
  Env fusion inh: -47[16.7 µM] | Yeast UUG start: 15

Structure: CN1C(=O)c2cc(NS(=O)(=O)c3ccccc3Cl)ccc2OC[C@H]2O[C@@H](CC(=O)O)CC[C@H]21
  Env fusion inh: -21[16.7 µM] | Yeast UUG start: -6

Structure: COCC#Cc1ccc2c(c1)O[C@H](CN(C)C(=O)Nc1ccccc1F)[C@H](C)CN([C@@H](C)CO)S2(=O)=O
  Env fusion inh: -30[16.7 µM] | Yeast UUG start: 31

(cont.)
smiles | Env fusion inh | Yeast UUG start
Cc1noc(C)c1NC(=O)Nc1ccc2c(c1)C(=O)N([C@@H](C)CO)C[C@@H](C)[C@H](CN(C)C(=O)Nc1ccc(C(F)(F)F)cc1)OCCCC[C@H](C)O2 | -14[16.7 µM] | -10
CCCC#Cc1ccc2c(c1)O[C@@H](CN(C)C(=O)CC)[C@H](C)CN([C@@H](C)CO)S2(=O)=O | -3[16.7 µM] | 22
[N-]=[N+]=NCc1ccccc1C[C@@]1(C(=O)NCC(O)CO)N=C(c2ccc(OCCCO)cc2)O[C@@H]1c1ccccc1 (some centres not stated) | -6[16.7 µM] | 4
Cc1noc(C)c1NC(=O)N(C)C[C@H]1Oc2c(NS(=O)(=O)c3ccccc3)cccc2C(=O)N([C@@H](C)CO)C[C@@H]1C | 17[16.7 µM] | -3
COc1ccc(S(=O)(=O)Nc2ccc3c(c2)C(=O)N([C@@H](C)CO)C[C@H](C)[C@@H](CN(C)Cc2ccncc2)OCCCC[C@@H](C)O3)cc1 | -12[16.7 µM] | 25
CC(C)CC#Cc1ccc2c(c1)O[C@@H](CN(C)C(=O)Cc1ccncc1)[C@@H](C)CN([C@@H](C)CO)S2(=O)=O | -10[16.7 µM] | -13
C[C@@H]1CN([C@@H](C)CO)C(=O)c2cc(C3=CCCCC3)cnc2O[C@H]1CN(C)C(=O)CN1CCOCC1 | -12[16.7 µM] | -10
COCC(=O)Nc1ccc2c(c1)C(=O)N(C)[C@@H]1CC[C@H](CC(=O)NCc3ccccc3Cl)O[C@@H]1CO2 | 29[16.7 µM] | 17
COc1ccc(NC(=O)N[C@H]2CC[C@@H](CCn3cc(-c4ccc(OC)cc4)nn3)O[C@@H]2CO)cc1 | -4[16.7 µM] | 1
C[C@H]1CN([C@@H](C)CO)C(=O)c2cccc(NC(=O)C3CCCCC3)c2O[C@@H]1CN(C)Cc1ccc(C(=O)Nc2ccccc2N)cc1 | 5[16.7 µM] | -5
C/C=C/c1ccc2c(c1)O[C@@H](CN(C)CC1CCOCC1)[C@H](C)CN([C@@H](C)CO)S2(=O)=O | -7[16.7 µM] | 5
CCCNC(=O)Nc1ccc2c(c1)C(=O)N(C)[C@H]1CC[C@H](CC(=O)NCC3CCCCC3)O[C@H]1CO2 | -6[16.7 µM] | -6
CN(C)C(=O)C[C@@H]1CC[C@@H]2[C@H](COC[C@@H](O)CN2Cc2nccs2)O1 | -1[16.7 µM] | -11
COC(=O)C[C@@H]1CC[C@@H]2[C@@H](COc3ccc(NC(=O)Nc4ccc(C)cc4)cc3C(=O)N2C)O1 | 14[16.7 µM] | 15
CCCNC(=O)N1C[C@@H](C)[C@@H](OC)CN(C)C(=O)c2ccc(NS(C)(=O)=O)cc2OC[C@H]1C | -7[16.7 µM] | 3
CNC[C@H]1Oc2ccc(NC(=O)CCC(F)(F)F)cc2C(=O)N([C@@H](C)CO)C[C@H]1C | 1[16.7 µM] | 19
COc1cccc(S(=O)(=O)N(C)C[C@H]2Oc3ncc(C#CC(C)C)cc3C(=O)N([C@H](C)CO)C[C@H]2C)c1 | -9[16.7 µM] | -4
C[C@H]1CN([C@@H](C)CO)C(=O)Cc2cc(NC(=O)Cc3cn(C)c4ccccc34)ccc2O[C@H]1CN(C)S(=O)(=O)c1ccccc1 | 67*[16.7 µM] | -20
CN1C(=O)c2cc(NC(=O)c3cnccn3)ccc2OC[C@H]2O[C@@H](CC(=O)O)CC[C@@H]21 | -6[16.7 µM] | -1
O=C(Cc1ccccn1)NCC[C@H]1CC[C@H](NS(=O)(=O)c2ccc(F)cc2)[C@H](CO)O1 | -3[16.7 µM] | 33
CO[C@H]1CN(C)C(=O)c2ccc(NC(=O)Nc3cccc(F)c3)cc2OC[C@@H](C)N(C)C[C@H]1C | -9[16.7 µM] | -7
O=C(C[C@@H]1C[C@H]2c3cc(NC(=O)Nc4ccc(C(F)(F)F)cc4)ccc3O[C@H]2[C@@H](CO)O1)NCc1ccccn1 | 18[16.7 µM] | -21
C/C=C/c1ccc2c(c1)O[C@@H](CN(C)C(=O)CC)[C@@H](C)CN([C@@H](C)CO)S2(=O)=O | 33[16.7 µM] | 10
CCCC(=O)Nc1ccc2c(c1)C(=O)N(C)[C@H]1CC[C@@H](CC(=O)Nc3ccccc3)O[C@@H]1CO2 | 3[16.7 µM] | 0
CO[C@@H]1CN(C)C(=O)c2ccc(NC(=O)Nc3ccc(C(F)(F)F)cc3)cc2OC[C@H](C)NC[C@H]1C | 7[16.7 µM] | 25
Cn1cnc(S(=O)(=O)N2C[C@@H](O)COC[C@@H]3O[C@@H](CC(=O)NCc4cccc(F)c4)CC[C@H]32)c1 | -27[16.7 µM] | -7
COCC(=O)Nc1ccc2c(c1)C(=O)N(C)[C@H]1CC[C@H](CC(=O)NC3CCCC3)O[C@H]1CO2 | 57*[16.7 µM] | -24
C[C@@H]1CN([C@H](C)CO)C(=O)Cc2cc(NS(=O)(=O)c3ccc(F)cc3)ccc2O[C@H]1CN(C)Cc1ccc(Oc2ccccc2)cc1 | 15[16.7 µM] | 0
COc1ccc(S(=O)(=O)N(C)C[C@H]2OCCCC[C@@H](C)Oc3ccc(NC(=O)CCCN(C)C)cc3C(=O)N([C@@H](C)CO)C[C@H]2C)cc1 | -24[16.7 µM] | 19
Cn1cnc(CCNC(=O)C[C@@H]2CC[C@@H]3[C@H](COC[C@@H](O)CN3C(=O)C3CCCC3)O2)c1 | -3[16.7 µM] | -6
C[C@H](CO)N1C[C@H](C)[C@H](CN(C)Cc2ccccc2)Oc2ccc(NS(=O)(=O)c3cn(C)cn3)cc2C1=O | 13[16.7 µM] | -5
CCCN(C)C[C@@H]1Oc2ncc(Br)cc2C(=O)N([C@H](C)CO)C[C@H]1C | -9[16.7 µM] | -3
Cc1noc(C)c1S(=O)(=O)N(C)C[C@@H]1OCCCC[C@@H](C)Oc2ccc(NC(=O)Nc3ccc4c(c3)OCO4)cc2C(=O)N([C@@H](C)CO)C[C@H]1C | -26[16.7 µM] | -20
CO[C@@H]1CN(C)C(=O)c2cc(NC(=O)C3CCOCC3)ccc2OC[C@@H](C)N(C(C)=O)C[C@H]1C | 12[16.7 µM] | 7
C[C@H](CO)N1C[C@H](C)[C@@H](CN(C)Cc2ccc(Cl)c(Cl)c2)Oc2ccc(NS(=O)(=O)c3ccc(F)cc3)cc2C1=O | -3[16.7 µM] | 19
COCCOC(=O)N1C(=O)[C@@]2(c3ccccc31)[C@H](C(=O)Nc1nc3ccccc3s1)[C@H]1C(=O)O[C@H](c3ccccc3)[C@H](c3ccccc3)N1[C@@H]2c1ccccc1OCCO | 13[16.7 µM] | -3
CCCN1C[C@@H](C)[C@@H](OC)CN(C)C(=O)c2ccc(NC(=O)CC(F)(F)F)cc2OC[C@@H]1C | 31[16.7 µM] | 8
C[C@@H]1CN([C@@H](C)CO)C(=O)Cc2cc(NC(=O)Nc3cccc4ccccc34)ccc2O[C@@H]1CN(C)S(=O)(=O)c1ccc(Cl)cc1 | 12[16.7 µM] | -2
C[C@@H]1CN([C@@H](C)CO)C(=O)c2cccc(NC(=O)c3ccncc3)c2O[C@H]1CN(C)Cc1ccncc1 | 18[16.7 µM] | -8
C[C@@H]1CN([C@@H](C)CO)C(=O)c2cc(-c3ccccc3)cnc2O[C@@H]1CN(C)C(=O)c1cccc(F)c1 | 14[16.7 µM] | 5
Cc1cc(C(=O)Nc2cccc3c2O[C@@H](CN(C)C(=O)NC2CCCCC2)[C@H](C)CN([C@H](C)CO)C3=O)n(C)n1 | 24[16.7 µM] | -11
C[C@@H]1CCCCO[C@@H](CN(C)S(=O)(=O)c2ccc(F)cc2)[C@@H](C)CN([C@@H](C)CO)C(=O)c2cc(NS(=O)(=O)c3cccs3)ccc2O1 | 5[16.7 µM] | -13
COCCNC(=O)C[C@@H]1C=C[C@H](NC(=O)NC2CCCC2)[C@H](CO)O1 | -4[16.7 µM] | -11
Cc1noc(C)c1NC(=O)N[C@@H]1CC[C@H](CCNC(=O)C2CCCC2)O[C@H]1CO | -3[16.7 µM] | -3
Cc1ccc(S(=O)(=O)Nc2ccc3c(c2)CC(=O)N([C@H](C)CO)C[C@@H](C)[C@H](CN(C)Cc2ccc(Cl)c(Cl)c2)O3)cc1 | -21[16.7 µM] | 0
Cc1noc(C)c1S(=O)(=O)N(C)C[C@H]1OCCCC[C@@H](C)Oc2ccc(NS(C)(=O)=O)cc2C(=O)N([C@H](C)CO)C[C@@H]1C | 1[16.7 µM] | 27
CO[C@H]1CN(C)C(=O)c2ccc(NC(=O)Cc3ccccc3)cc2OC[C@@H](C)N(CC2CC2)C[C@H]1C | -20[16.7 µM] | 14
O=C(C[C@H]1CC[C@@H](NC(=O)Nc2ccc(C(F)(F)F)cc2)[C@@H](CO)O1)NCc1cccc(F)c1 | -7[16.7 µM] | 21
Cc1ccc(S(=O)(=O)Nc2ccc3c(c2)C(=O)N([C@@H](C)CO)C[C@H](C)[C@H](CN(C)C(=O)Nc2cccc4ccccc24)OCCCC[C@H](C)O3)cc1 | -3[16.7 µM] | -9
Cc1noc(C)c1S(=O)(=O)Nc1ccc2c(c1)C(=O)N([C@@H](C)CO)C[C@H](C)[C@H](CN(C)Cc1ccccc1)O2 | -15[16.7 µM] | 3
C[C@@H]1CN([C@@H](C)CO)C(=O)c2cc(-c3cncnc3)cnc2O[C@@H]1CN(C)C(=O)Cc1ccccn1 | -4[16.7 µM] | 2
CN(C)CC(=O)Nc1ccc2c(c1)[C@H]1C[C@@H](CC(=O)NCc3ccc4c(c3)OCO4)O[C@@H](CO)[C@H]1O2 | -7[16.7 µM] | 0
COC(=O)C[C@H]1CC[C@@H]2[C@@H](COc3ccc(NC(=O)c4ccc(F)cc4)cc3C(=O)N2C)O1 | -4[16.7 µM] | 7

High-throughput results from PubChem BioAssay.
